Screening results: PubChem BioAssay, several laboratories
PKD1 inh = PKD1 (human) kinase inhibition. inhibition, %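 (about 10 µM by stock and volumes)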. Q15139. PKD1 kinase fluorescence polarization assay. AID 797. 0.056% of 200,000 active;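 active means inhibition of 50% or more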;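 further: controls were vehicle for no effect and a reference inhibitor for full effect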
INS promoter inh = TRM-6 insulin promoter activity inhibition; TRM-6 cells (human fetal islet line), insulin promoter-eGFP reporter, imaging; reporter expression induced with tamoxifen; inhibition, % at 2 µM; 0.9% of 130,000 active;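 active means inhibition above the mean plus 3 SD, with well images judged a real hit on visual review, cut at about 60% in these data, passing the limit was not always enough; inconclusive means inhibition over the cutoff but images rejected on review; inactive means inhibition not above the cutoff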
GALR2 ag = agonists of human galanin receptor 2 (GALR2) | O43603 | GALR2-expressing cells, agonist activation read-out | activation, %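 (tested at 5 µM)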 | 0.48% of 140,000 active | AID 803;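 active means above mean plus 3 SD of all compounds, about 5% in these data, not always enough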;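 further: 0% = vehicle buffer wells and 100% = reference agonist at full effect; tested in CHO reporter cells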
Target sequence (O43603 whole entry, looked up): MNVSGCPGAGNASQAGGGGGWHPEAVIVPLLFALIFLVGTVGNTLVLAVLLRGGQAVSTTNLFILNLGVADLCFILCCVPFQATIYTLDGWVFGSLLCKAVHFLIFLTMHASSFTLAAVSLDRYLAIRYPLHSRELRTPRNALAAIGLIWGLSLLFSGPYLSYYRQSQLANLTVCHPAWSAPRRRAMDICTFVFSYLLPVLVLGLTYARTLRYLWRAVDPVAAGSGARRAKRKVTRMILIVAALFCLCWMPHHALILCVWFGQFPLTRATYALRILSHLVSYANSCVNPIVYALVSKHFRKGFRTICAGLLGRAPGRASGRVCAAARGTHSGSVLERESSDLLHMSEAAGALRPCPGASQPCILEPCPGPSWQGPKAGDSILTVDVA
HSV augment = increases HSV replication in cells; HSV replication augmentation in cells, fold increase; AID 1956; 0.005% of 220,000 active; maximum fold increase;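 active means peak rise of 1.5-fold or more in the series; inconclusive means self-fluorescent or not available for retest; tested in PC3 cells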;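 further: first round at 10 µM; read as green reporter fluorescence; hits show the peak of a series up to 25 µM; 1 = signal of infected wells without compound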
RGS16-Gao = regulators of human RGS16-Galphao interaction; O15492+P09471; AID 1441; 0.38% of 220,000 active; binding response (% of control), % at 10 µM; bead-based flow cytometry RGS16-Galphao binding, fluorescence; actives lie on both sides;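 active means below 25% or above 175%, edge rows of some plates excepted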;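 further: Galphao activated by GDP with aluminum fluoride before binding; 100% = wells without compound and 0% = beads without RGS; some results beyond the cut were filed as inactive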
Target sequence (O15492 whole entry, looked up): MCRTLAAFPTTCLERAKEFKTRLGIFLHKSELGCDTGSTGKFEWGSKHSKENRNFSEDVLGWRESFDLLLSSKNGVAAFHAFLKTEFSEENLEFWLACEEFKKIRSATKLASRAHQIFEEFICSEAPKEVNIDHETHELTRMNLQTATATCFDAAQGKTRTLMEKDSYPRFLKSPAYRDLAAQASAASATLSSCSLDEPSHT
Target sequence (P09471 whole entry, looked up): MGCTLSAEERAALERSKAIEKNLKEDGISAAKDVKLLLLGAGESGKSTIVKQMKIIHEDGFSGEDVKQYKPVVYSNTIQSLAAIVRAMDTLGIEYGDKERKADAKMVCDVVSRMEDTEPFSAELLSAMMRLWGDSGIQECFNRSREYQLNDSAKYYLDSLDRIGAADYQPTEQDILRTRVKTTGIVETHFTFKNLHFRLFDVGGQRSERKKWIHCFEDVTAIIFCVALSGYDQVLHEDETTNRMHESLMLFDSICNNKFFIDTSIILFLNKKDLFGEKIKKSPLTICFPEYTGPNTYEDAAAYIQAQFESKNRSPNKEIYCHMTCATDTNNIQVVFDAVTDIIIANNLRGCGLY
INS promoter inh cell count = also measured in INS promoter inh; calls as there; normalized cell count, %; measured here: cell count, toxicity; reference of the scale not given here;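 cells exposed to compound for 48 h; stained nuclei by imaging scaled within each plate; lower means fewer cells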
HSV augment primary fold = recorded beside HSV augment, whose call it bears; fold increase; compound at 10 µM; measured here: primary screen fold increase 10 uM; tested in PC3 cells;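 GFP signal in the first replicate; 1 = infected wells without compound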
An asterisk follows results filed as active; i = inactive; ? = inconclusive; · = not tested or not shown.

SMILES	PKD1 inh	INS promoter inh	INS promoter inh cell count	GALR2 ag	HSV augment	HSV augment primary fold	RGS16-Gao
CCc1cc2c3c(c1)C1(C(=O)N3C(C)(C)C=C2C)C(C#N)=C(N)Oc2[nH]c(=O)[nH]c(=O)c21 (stereo not given)	-3	-19	115	·	i	0.98	98
COc1ccccc1NC(=O)COC(=O)c1ccc([N+](=O)[O-])s1	-5	40	123	·	i	0.85	105
CCCNC(=O)C/C(C)=N/NC(=O)C(=O)Nc1ccccn1	-1	·	·	·	i	1.1	51
COc1ccc(Cc2noc(CN3CCCN(Cc4ccc(F)cc4)CC3)n2)cc1OC	3	·	·	·	i	0.98	123
Cc1ccc(C(=O)OCC(=O)Nc2ccccc2Cl)c(O)c1	·	·	·	·	i	1.1	104
Cc1nn2c(COc3ccc(NC(=O)c4ccccc4)cc3)nnc2c2ccccc12	-4	14	125	0.0	i	0.86	101
COc1ccc(C2NC(C(=O)O)Cc3c2[nH]c2ccccc32)cc1CN1CCN(c2ccc(F)cc2)CC1 (stereo not given)	·	·	·	·	i	1.1	105
C#CCOc1ccccc1CNc1ccccc1	-4	-77	62	-1.6	i	0.97	106
COc1ccc(NC(=O)c2nc[nH]c2C(=O)N(C)Cc2ccccc2)cc1	·	·	·	·	i	0.86	100
Cc1c(O)c(CN2CCCCC2)cc2c3c(c(=O)oc12)CCC3	6	9	107	2.5	i	0.9	100
CC(C)n1c(SCc2ccc(Cl)cc2)nc2c1c(=O)[nH]c(=O)n2C	-2	·	·	0.4	i	0.79	98
CCOC(=O)C(NC(=O)CCC(=O)Nc1ccc(S(N)(=O)=O)cc1)C(O)c1ccccc1 (stereo not given)	-2	-63	135	-1.0	i	0.93	101
O=C(O)c1ccoc1CN1CCCCC1	-4	10	85	-1.3	i	0.55	85
CCOC(=O)/C(C#N)=C1/C=Nc2ccccc2N1	0	·	·	-0.7	i	1	101
Cc1cc(S(=O)(=O)N2CCCC2)ccc1OCC(=O)N1CCOCC1	-7	78*	105*	-0.7	i	0.99	106
COc1cc(Cl)cc(C(=O)O)c1OCC(=O)O	-2	·	·	·	i	0.88	124
CC(C)C(C(=O)NCc1ccco1)N(C(=O)CNS(=O)(=O)c1ccccc1)c1ccccc1 (stereo not given)	-5	·	·	·	i	1	104
O=[N+]([O-])c1cc2c(cc1/C=N/Nc1nc(Nc3ccccc3)nc(N3CCCCC3)n1)OCO2	-3	-18	114	-3.8	i	0.97	98
COc1ccc(C2C(C(=O)O)CCC(=O)N2c2ccc(C)cc2)cc1OC (stereo not given)	·	·	·	·	i	0.93	99
COC(=O)COc1ccc2c(-c3ccc(OC)cc3)cc(=O)oc2c1	2	0	81	-0.7	i	0.97	104

Quoted at random: 5 compounds from above
SMILES	PKD1 inh	INS promoter inh	INS promoter inh cell count	GALR2 ag	HSV augment	HSV augment primary fold	RGS16-Gao
Cc1nn2c(COc3ccc(NC(=O)c4ccccc4)cc3)nnc2c2ccccc12	-4	14	125	0.0	i	0.86	101
Cc1cc(S(=O)(=O)N2CCCC2)ccc1OCC(=O)N1CCOCC1	-7	78*	105*	-0.7	i	0.99	106
COc1cc(Cl)cc(C(=O)O)c1OCC(=O)O	-2	·	·	·	i	0.88	124
CCOC(=O)/C(C#N)=C1/C=Nc2ccccc2N1	0	·	·	-0.7	i	1	101
COc1ccc(Cc2noc(CN3CCCN(Cc4ccc(F)cc4)CC3)n2)cc1OC	3	·	·	·	i	0.98	123

(next part)
SMILES	PKD1 inh	INS promoter inh	INS promoter inh cell count	GALR2 ag	HSV augment	HSV augment primary fold	RGS16-Gao
O=C(CCC1CCCN(C(=O)Cn2cnnn2)C1)NCc1ccccc1F (stereo not given)	15	·	·	·	i	1	108
COc1ccc(C(c2nnnn2CS(=O)(=O)c2ccc(C)cc2)N2CCN(Cc3ccccc3)CC2)cc1 (stereo not given)	4	i	47	-2.7	i	0.96	·
CC(C)NC(=S)N(C)C1(c2ccccc2Cl)CCCCC1=O (stereo not given)	-9	-7	89	-1.6	i	1	93
CC12CC3(C)CC(C)(C1)CC(C(=O)Nc1nn[nH]n1)(C2)C3	2	7	64	-1.7	i	0.82	117
COc1ccccc1OCC(=O)Nc1ccc(O)cc1C(=O)O	-1	19	79	-2.5	i	1	101
CC1(C)CC(CC(=O)NNc2nc(-c3ccccc3)cs2)C(=O)O1 (stereo not given)	-3	·	·	2.4	i	0.9	57
CCCn1c(SCC(=O)NC2CCCC(C)C2C)n[nH]c1=O (stereo not given)	5	-22	58	-2.0	i	1.1	112
COC(=O)c1cc(OC)c(OC)cc1NC(=O)Nc1ccccc1F	·	·	·	·	i	0.69	102
CCOP(=O)(OCC)C(NCc1ccccc1)c1ccc(Br)cc1 (stereo not given)	-9	32	36	-2.0	i	0.94	103
CC1(C)CC(=O)C(C=NCCN2CCN(C(=S)Nc3cccc(Cl)c3)CC2)=C(O)C1	-9	37	95	-1.7	i	0.81	98
CCCC(=O)NC(=S)c1c(C)n(C)n(-c2ccccc2)c1=O	-3	·	·	·	i	1.1	101
CC(=NCCCn1ccnc1)c1c(C)[nH]n(-c2ccc([N+](=O)[O-])cc2)c1=O	-4	·	·	·	i	1	98
CCOCC(=O)Nc1nc2c(s1)C(=O)CC(C)(C)C2	-4	·	·	0.0	i	0.96	84
O=C(CSCc1ccccc1)N/N=C/c1ccc(OCC(=O)N2CCCCC2)cc1	-13	-31	64	0.4	i	1	98
CCOc1ccc2noc3c2c1C(=O)c1ccccc1-3	97*	36	59	-3.0	?	·	98
CCCc1nnc(NS(=O)(=O)c2ccc(OC)cc2)s1	-2	·	·	·	i	0.95	81
COC(=O)C1=C(C)NC2=C(C(=O)CC(C)(C)C2)C1c1ccsc1 (stereo not given)	-3	-100	152	-1.0	i	1.1	18*
O=C(NC1CCCC1)C1=COCCO1	-12	3	181	-1.6	i	0.89	110
CCCCCOC(=O)C(C)c1c(C)[nH]c(=S)[nH]c1=O (stereo not given)	-4	·	·	-1.4	i	0.95	103
O=C(CN1C(=O)NC2(CCCC2)C1=O)N1CCc2ccccc2C1	-2	·	·	·	i	0.99	103

Nothing new here: 6 of the compounds above.
SMILES	PKD1 inh	INS promoter inh	INS promoter inh cell count	GALR2 ag	HSV augment	HSV augment primary fold	RGS16-Gao
CCOc1ccc2noc3c2c1C(=O)c1ccccc1-3	97*	36	59	-3.0	?	·	98
CCCc1nnc(NS(=O)(=O)c2ccc(OC)cc2)s1	-2	·	·	·	i	0.95	81
COC(=O)C1=C(C)NC2=C(C(=O)CC(C)(C)C2)C1c1ccsc1 (stereo not given)	-3	-100	152	-1.0	i	1.1	18*
O=C(NC1CCCC1)C1=COCCO1	-12	3	181	-1.6	i	0.89	110
CCCCCOC(=O)C(C)c1c(C)[nH]c(=S)[nH]c1=O (stereo not given)	-4	·	·	-1.4	i	0.95	103
O=C(CN1C(=O)NC2(CCCC2)C1=O)N1CCc2ccccc2C1	-2	·	·	·	i	0.99	103

Continuation.
SMILES	PKD1 inh	INS promoter inh	INS promoter inh cell count	GALR2 ag	HSV augment	HSV augment primary fold	RGS16-Gao
CCOC(=O)N1CCN(C(=O)CSCc2ccc(Br)cc2)CC1	-4	·	·	·	i	0.98	105
CN(C)S(=O)(=O)c1cc(C(=O)O)c(NC2CCCCC2)cc1Cl	-1	-36	148	-2.2	i	0.89	106
CN(C)CCNS(=O)(=O)c1ccc(N2CCN(c3ccc(F)cc3)CC2)c([N+](=O)[O-])c1	0	22	97	0.1	i	0.68	82
Cc1ccc(C(=O)OCC(=O)c2ccc[nH]2)s1	-7	21	88	·	·	·	108
CC(C)C(=O)Nc1cccc(C(=O)Nc2nnc(C(C)C)s2)c1	-6	46	94	-0.9	i	0.95	105
O=C(COC(=O)Cn1cnc2ccccc2c1=O)Nc1ccc(Cl)c(C(F)(F)F)c1	-6	-14	89	-1.7	i	0.72	101
CCCCOc1ccc(OCCCN2CCOCC2)cc1	-6	-23	88	-0.5	i	0.92	116
CN(Cc1cnccn1)Cc1nc(Cc2cccc(F)c2)no1	6	·	·	·	i	1.2	97
CCC(C)(C)C(=O)Nc1ccc(C(N)=O)cc1	-8	16	78	-1.8	i	0.9	104
O=Cc1cccn1-c1c(C(=O)O)cnn1-c1ccccc1	-6	41	131	·	i	0.94	105
COC(=O)c1ccccc1OCc1cccc(C)n1	-4	·	·	-1.6	i	0.98	105
CCOc1ccc(C(=O)N[C@H](C(=O)O)C(C)C)cc1	-5	9	88	-1.0	i	0.95	99
O=C(c1cccs1)N1CCN(Cc2cccnc2)CC1	·	·	·	·	i	0.76	138
CC(=O)c1cccc(NC(=O)C2C(c3ccccc3)C2(Cl)Cl)c1 (stereo not given)	6	-24	128	·	i	1.2	99
O=C(Nc1ccc(Cl)cn1)c1cccnc1	-8	-47	101	0.4	i	0.88	104
O=C(NCCCN1CCOCC1)c1ccc(Cl)cc1[N+](=O)[O-]	-1	·	·	·	i	1	99
O=C(OCc1ccccc1Cl)c1cccnc1Cl	5	11	175	-2.1	i	1.1	104
COc1ccc(NC(=S)N2CCN(c3ccccn3)CC2)cc1OC	-10	·	·	0.1	i	1.1	96
Cc1ccc(C)c2nc3sc(C(=O)N4CCOCC4)c(N)c3cc12	1	-36	56	·	i	0.9	92
CCNC(=S)NNC(=O)C1CCN(Cc2ccccc2)CC1	0	-11	137	·	i	0.93	108
CC(C)CC(C(=O)NCC1CCCO1)N(C(=O)Cn1nnc(-c2ccc(F)cc2)n1)c1cccc(C(F)(F)F)c1 (stereo not given)	0	-40	119	-2.0	i	0.73	107
O=C1NC(=O)/C(=C\c2ccc(Oc3ccc([N+](=O)[O-])cn3)cc2)S1	2	7	66	-2.2	i	1	81
COC(=O)c1ccc(C(=O)OC)c(NC(=O)CSCc2ccc(Br)cc2)c1	1	·	·	-2.0	i	0.89	104
CCOC(=O)c1cn(Cc2cccc(C)c2)nn1	-1	18	101	-1.0	i	0.95	106
CC(=O)Nc1ccc(Oc2ccc([N+](=O)[O-])cc2Cl)cc1	-1	·	·	·	i	1	122
COc1ccc(NS(=O)(=O)c2cccc(NC(=O)COc3ccc(OC)cc3)c2)cc1	·	·	·	·	i	0.91	105
c1cncc(CNc2cccc(-c3nc4ccccc4[nH]3)c2)c1	7	31	164	0.9	i	0.85	99
CCN(CC)S(=O)(=O)c1ccc(NC(=S)NC(=O)CC(C)C)cc1	-1	19	157	-0.6	i	0.81	104
CC1(C)Nc2ccccc2N(CCC(=O)N2CCOCC2)C1=O	-3	·	·	-1.9	i	0.96	99
Cc1ccc(Nc2cc(-n3cccn3)ncn2)c(C)c1	-7	6	93	-1.6	i	0.82	104
CCCCNC(=O)NCc1cnn(C)c1C	9	19	113	-1.7	i	0.97	30
Cn1c(=O)c(Oc2ccc(Cl)cc2)c(O)c2ccccc21	5	8	96	-1.3	i	1.1	115
O=C(C1CCN(Cc2nc(-c3ccc(Cl)cc3)no2)CC1)N1CCOCC1	·	·	·	·	i	1	94
Cc1ccc(S(=O)(=O)c2c(C)nn(-c3ccccc3)c2OC(=O)c2ccc(Br)o2)cc1	10	-29	87	-1.4	i	0.92	106
CC(=O)c1cc(C#N)c(Oc2ccc(F)cc2)nc1C	0	-23	126	-2.5	i	0.92	96
O=[N+]([O-])c1cccc(-c2ncc3ccccn23)c1	-6	45	25	·	i	1.1	102
O=C(Cn1cnc2c(nnn2Cc2ccccc2)c1=O)NCc1ccccc1Cl	·	·	·	·	i	0.98	141
COc1ccc(C(=O)OC(COc2ccccc2)Cn2ccnc2)cc1 (stereo not given)	-2	-29	101	-1.4	i	0.88	·
CC(=O)Nc1cccc(C(=O)/C=C/c2ccc(N(C)C)cc2)c1	-2	-23	134	-1.3	i	1.4	104
OC1CSc2nc3ccccc3n2C1 (stereo not given)	5	0	82	·	i	1.1	101

Hits appear at their usual frequency; overall some 1.3% were active at least once.
